GAA glycogen: GAA glycogen-cleavage inhibition or activation; P10253; recombinant GAA, glycogen substrate, Amplex Red glucose oxidase fluorescence; Potency, µM (series often up to 76.4 µM), for inactives: top-dose activity change, negative = inhibition, most hits filed as inhibitors; 300,000 tested, 0.38% active; AID 2100;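 further: 0% = full enzyme reaction and -100% = no-enzyme basal signal; the screen sought inhibitors and activators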
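Recombinant enzyme (4 nM final) with compounds titrated up to 77 uM and bovine liver glycogen (30 ug) in citrate pH 5.0, 0.01% Tween-20, 37 C 40 min. Released glucose detected by Amplex Red/glucose oxidase (Ex 573/Em 610); AC50 from Hill fits.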
NPSR antagonist: neuropeptide S receptor (human) antagonism, cAMP; Q6W5P4; CHO-NPSR cells, cAMP TR-FRET, antagonist mode; Potency, µM (titrated, usually from 38.3 µM), for inactives: at the highest dose activity change, negative = inhibition, most hits filed as inhibitors; 220,000 tested, 1% active; further: on the % scale 0 is the no-effect control and ±100 the full control effect; nearly all actives have a fitted effect of over 50% in size; many of its hits are not listed in these tables
Target sequence (Q6W5P4 whole entry, looked up): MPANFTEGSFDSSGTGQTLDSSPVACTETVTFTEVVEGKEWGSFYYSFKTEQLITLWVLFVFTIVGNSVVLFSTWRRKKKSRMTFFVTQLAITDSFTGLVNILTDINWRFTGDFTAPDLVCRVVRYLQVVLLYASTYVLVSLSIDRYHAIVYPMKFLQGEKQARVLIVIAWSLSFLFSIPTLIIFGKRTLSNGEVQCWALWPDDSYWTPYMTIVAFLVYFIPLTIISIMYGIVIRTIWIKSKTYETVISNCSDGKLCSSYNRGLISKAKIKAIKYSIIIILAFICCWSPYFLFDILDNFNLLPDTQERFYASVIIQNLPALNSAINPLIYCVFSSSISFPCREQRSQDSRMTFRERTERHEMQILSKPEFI
GAA inh: blocks human lysosomal alpha-glucosidase; Potency, µM (doses to about 76.9 µM), for inactives: at the highest dose activity change, negative = inhibition, actives largely listed as inhibitors; P10253; 200,000 tested, 0.005% active; AID 1466; purified human GAA, 4-MU-alpha-glucoside fluorescence;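 further: plate controls were uninhibited enzyme wells for no effect and no-enzyme background for full effect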
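Activity normalized between no-enzyme (basal) and enzyme-only wells. Conditions: 4 nM human enzyme, 400 uM fluorogenic substrate, citrate/phosphate pH 5.0 with Tween-20, 20 min room temperature, compounds up to 77 uM.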
Epigenetic reg: derepresses silenced GFP reporter in murine cells; murine LDR cells, GFP reporter derepression, 30 h; Potency, µM (series often up to 53.9 µM), for the others: at the highest dose GFP activation, hits mostly activators; AID 1865; 280,000 tested, 0.2% active; further: % of control where 0% means no effect; nearly all actives have a fitted effect of over 60% in size
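Derepression of a silenced CMV-GFP reporter in murine LDR cells is scored by enumerating GFP-positive cells with a laser-scanning microplate cytometer after 30 hours of treatment at 37 C.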
Tau fluor cs: counter-screen for tau fibril formation inhibitors. tau K18 P301L (four-repeat tau fragment) Alexa594 fluorescence, heparin fibrillization. Potency, µM (doses to about 57.7 µM), inactives show at the top dose activity change, negative = decrease. 280,000 tested, 0.93% active; further: on the % scale 0 is the no-effect control and ±100 the full control effect; nearly all actives have a fitted effect of over 55% in size
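Human K18 P301L tau (15 uM unlabeled plus 0.24 uM Alexa 594-labeled, final) in 100 mM sodium acetate pH 7 was mixed with compound and 20 uM heparin and incubated 6 hr at 37 C.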
aGal spleen mod: alpha-galactosidase A (human) modulation. human spleen homogenate, 4MU-alpha-Gal fluorescence, 40 min. Potency, µM (doses to about 80 µM), for the others: at the highest dose activity change, negative = inhibition, actives largely listed as inhibitors. 240,000 tested, 0.008% active;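 further: 0% = enzyme with vehicle and -100% = no enzyme basal signal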
Target sequence (P06280 32-429 limits assumed): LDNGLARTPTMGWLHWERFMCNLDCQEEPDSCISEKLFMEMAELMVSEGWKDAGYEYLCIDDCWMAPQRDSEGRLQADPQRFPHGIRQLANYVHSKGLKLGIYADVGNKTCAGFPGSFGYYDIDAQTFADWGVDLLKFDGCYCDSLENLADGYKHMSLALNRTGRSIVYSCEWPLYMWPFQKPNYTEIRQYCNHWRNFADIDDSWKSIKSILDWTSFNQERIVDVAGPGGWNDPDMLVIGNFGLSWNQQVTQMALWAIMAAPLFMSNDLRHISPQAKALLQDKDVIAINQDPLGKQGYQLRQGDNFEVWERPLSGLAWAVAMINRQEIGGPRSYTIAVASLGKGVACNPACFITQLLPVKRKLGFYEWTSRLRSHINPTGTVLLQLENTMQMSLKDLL
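Spleen homogenate 1 ug + cpd (titration) + 4-MU-alpha-D-galactopyranoside 1 mM; 37C 40 min; 50 mM citrate/phosphate pH 5.0, 0.01% Tween-20; stop pH 10; fluorescence 365/440; AC50 via Hill.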
GAA spleen mod: inhibits or activates alpha-glucosidase in human spleen homogenate; human spleen homogenate, 4-MU-alpha-glucoside fluorescence; Potency, µM (doses to about 79.9 µM), inactives show at the top dose activity change, negative = inhibition, most hits filed as inhibitors; 240,000 tested, 0.006% active; P10253;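 further: 0% = enzyme with vehicle and -100% = no enzyme basal signal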
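Enzyme source: human spleen homogenate, 1 ug/well. Buffer 50 mM citric acid/K phosphate pH 5.0, 0.01% Tween-20. 4-MU-alpha-glucoside 1 mM; 37 C x 40 min; NaOH/glycine stop; fluorescence.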
Numbers without * were called inactive; ? = inconclusive; . = no result given; & = joins results of further samples; [ ] = another dose, or the depositor's remark. The call rests on the fitted dose curve; in most records, active means well fitted curve in the direction sought with a large enough effect; inconclusive means small, poorly fitted or top-dose-only effect, or another doubt; inactive means no such curve, though single readings can be large; an effect the other way counts as inactive or inconclusive. Potency means the concentration at half of the fitted maximal effect. A portion of the library; rates above refer to the full screens.

SMILES	GAA glycogen	NPSR antagonist	GAA inh	Epigenetic reg	Tau fluor cs	aGal spleen mod	GAA spleen mod
Cc1ccccc1NS(=O)(=O)c1ccc(C(=O)OCC(=O)NCC(C)C)cc1	-10%	-2%	-2%	-1.5%	8%	-5%	-3%
Cc1ccc(N2CC(C(=O)N3CCN(c4ccccc4)CC3)CC2=O)cc1 (configuration not stated)	-1%	-20%[46.1 µM]	-1%	0.0%	-4%	11%	-5%
Cc1ccccc1CN1CCN(CC(=O)NCCCN2CCN(c3ccc(F)cc3)CC2)C1=O	7%	3%[46.1 µM]	7%	-0.9%	-9%	-4%	-14%
O=S(=O)(c1ccccc1)N(CC1CO1)c1cccc2ccccc12 (configuration not stated)	7%	15%	-7%	1.1%	-20%	4%	1%
CC(NS(=O)(=O)c1ccc(Cl)cc1)C(c1cccs1)N1CCN(C)CC1 (configuration not stated)	4%	9%	-2%	-1.0%	-2%	-2%	4%
O=C(Nc1ccccn1)c1sc2cccc(F)c2c1Cl	8%	?	-3%	-2.5%	-3%	13%	3%
Cc1ccc(N=c2c([N+](=O)[O-])nn(-c3ccccc3)n2O)c(C)c1	-7%	-12%[46.1 µM]	-3%	-1.0%	?	-1%	-4%
CC(c1nnc(SCC(=O)NC(=O)NCc2ccco2)n1-c1ccc(Cl)cc1)N(C)C (configuration not stated)	0%	-11%[46.1 µM]	3%	3.5%	2%	-14%	-25%
COc1ccc(CN2C(=O)C(=O)N(CC(N)=O)C2=O)cc1	-9%	12%	-5%	-0.1%	4%	1%	.
COc1c(Cl)cc(Cl)cc1C(=O)Nc1ccc(NC(=O)c2cccs2)cc1	3%	-22%[46.1 µM]	-5%	0.0%	?	2%	1%
COc1ccc(NC(=O)c2cc3cccc(OC)c3oc2=Nc2ccc(C(=O)O)cc2)cc1OC	-1%	-16%	3%	0.3%	?	-1%	-7%
Cc1cc(C(=O)CSc2nnc3ccccn23)c(C)n1-c1ccccc1	9%	11%	4%	-1.3%	9%	-3%	5%
Cc1ccc(Nc2c([N+](=O)[O-])ccc3c2=NC2(CCCCC2)N=3)cc1	3%	?	2%	0.8%	?	-7%	-3%
CCCCCCCNc1nc(Cl)nc(NCCO)n1	-6%	-3%	2%	2.2%	-4%	2%	-2%
CCC(Sc1nc2ccccc2[nH]1)C(=O)Nc1cc(C)on1 (configuration not stated)	4%	13%[46.1 µM]	5%	-1.0%	-3%	-2%	-7%

An excerpt from above in order of their number in GAA spleen mod, largest number first.
| SMILES | GAA glycogen | NPSR antagonist | Epigenetic reg | aGal spleen mod | GAA spleen mod |
| --- | --- | --- | --- | --- | --- |
| Cc1cc(C(=O)CSc2nnc3ccccn23)c(C)n1-c1ccccc1 | 9% | 11% | -1.3% | -3% | 5% |
| CCCCCCCNc1nc(Cl)nc(NCCO)n1 | -6% | -3% | 2.2% | 2% | -2% |
| Cc1ccc(Nc2c([N+](=O)[O-])ccc3c2=NC2(CCCCC2)N=3)cc1 | 3% | ? | 0.8% | -7% | -3% |
| Cc1ccc(N=c2c([N+](=O)[O-])nn(-c3ccccc3)n2O)c(C)c1 | -7% | -12%[46.1 µM] | -1.0% | -1% | -4% |
| CCC(Sc1nc2ccccc2[nH]1)C(=O)Nc1cc(C)on1 (configuration not stated) | 4% | 13%[46.1 µM] | -1.0% | -2% | -7% |

The listing picks up, starting 3 compounds before the break.
SMILES	GAA glycogen	NPSR antagonist	GAA inh	Epigenetic reg	Tau fluor cs	aGal spleen mod	GAA spleen mod
Cc1ccc(Nc2c([N+](=O)[O-])ccc3c2=NC2(CCCCC2)N=3)cc1	3%	?	2%	0.8%	?	-7%	-3%
CCCCCCCNc1nc(Cl)nc(NCCO)n1	-6%	-3%	2%	2.2%	-4%	2%	-2%
CCC(Sc1nc2ccccc2[nH]1)C(=O)Nc1cc(C)on1 (configuration not stated)	4%	13%[46.1 µM]	5%	-1.0%	-3%	-2%	-7%
O=S(=O)(c1ccc(Cl)cc1)n1c(Cc2ccccc2)nc2ccccc21	-1%	19%	?	-0.1%	-1%	-4%	-5%
Cc1nccn1CCC(=O)Nc1ccc(Cl)cc1	-11%	19%	3%	2.0%	-11%	4%	-2%
COc1ccc(-n2nnnc2S(=O)(=O)Cc2ccc(C(=O)O)cc2)cc1	18%	2%[46.1 µM]	-8%	0.0%	4%	4%	8%
CCC(=O)Nc1ccc(NC(=O)CSc2nnnn2-c2cccnc2)cc1C	5%	0%[46.1 µM]	-5%	2.8%	3%	-5%	4%
CCOC(=O)C1=C(O)C(=O)NC(c2ccccc2)=C(OC2CCCCC2)C1	6%	-17%	-3%	3.2%	2%	-6%	0%
ClCc1nnc(-c2cc3c(s2)CCCC3)o1	5%	-15%	3%	2.1%	-5%	-2%	0%
Cc1cccc(NC(=O)Nc2ccncc2)c1	4%	3%	-8%	1.1%	-14%	3%	3%
CC(=O)N1CCN(CC(=O)Nc2ccc([N+](=O)[O-])cc2Br)CC1	0%	-4%	-11%	1.1%	5%	-10%	3%
COc1cc(C(=O)NCc2cn3cccc(C)c3n2)cc(OC)c1OC	-8%	-3%[46.1 µM]	-2%	0.0%	-15%	8%	9%
COc1cccc(OC)c1C(=O)NNC(=O)c1cccnc1	6%	-30%	-7%[15.4 µM]	-0.3%	0%	0%	-6%
COc1ccc(OCC(=O)N2CCN(S(=O)(=O)c3ccccc3[N+](=O)[O-])CC2)cc1	-7%	0%	-14%	1.1%	-6%	7%	-6%
COc1cc(C=C2C(=O)OC(C)(C)OC2=O)cc(Cl)c1OCC(=O)Nc1ccccc1	9%	-7%	0%	-1.7%	2%	-6%	-5%
Cc1csc(NC(=O)CSc2nnc3c4ccccc4nc(C(C)(C)C)n23)n1	-2%	-6%[46.1 µM]	13%	-0.9%	0%	-8%	-3%
CCOP(=O)(OCC)C(NC(=O)Nc1cccc(Cl)c1)c1ccccc1 (configuration not stated)	8%	-16%	-11%	1.1%	-20%	-2%	-6%
Cc1ccc(NC(=O)CN(C)C(=O)CSc2n[nH]c(N)n2)cc1	5%	-9%[46.1 µM]	-1%	-1.4%	-1%	4%	6%
CCC1=NN(C(=O)c2cccc(Br)c2)C(O)(c2ccc(Br)cc2)C1 (configuration not stated)	?	-3%	3%	1.1%	4%	-8%	-13%
CC(C)=CCCC(C)CCO (configuration not stated)	.	.	.	-2.5%	-1%	6%&-6%	7%&2%
CCOc1cccc(OCCOCCN(C)Cc2ccccc2)c1	4%	-1%[46.1 µM]	13%	-1.0%	-3%	-4%	-1%
CCN(CC)C(=O)c1ccc(C(=O)c2c(C)cc(C)cc2C)cc1	-6%	-16%[46.1 µM]	-3%	2.4%	-10%	-9%	-8%
Cc1cc(O)ccc1NC(=O)c1ccccc1	-11%	-8%[46.1 µM]	-1%	0.0%	-9%	-1%	-6%
CC(C)c1ccccc1NC(=S)NCc1ccncc1	-8%	9%	-2%	-5.7%	0%	2%	8%
Nc1nnnn1/N=C/c1ccccn1	-6%	0%[46.1 µM]	-15%	-3.2%	2%	5%	3%
CC(C)(C)OC(=O)N1CC(O)CC1C(=O)OCC(=O)c1ccccc1 (configuration not stated)	6%	-6%[46.1 µM]	-4%	0.8%	-5%	5%	2%
O=C1/C(=C/c2cccnc2)SC(=S)N1C1CCS(=O)(=O)C1 (configuration not stated)	-19%	-7%[46.1 µM]	2%	11%	-11%	5%	-4%
CSc1ncc(CN2CCN(CC=C(C)C)C(CCO)C2)cn1 (configuration not stated)	8%	-21%	.	-0.2%	10%	-7%	-2%
C/C(=N\NC(=O)c1cccc(C)c1)c1ccc(N2CCOCC2)cc1	-9%	-11%[46.1 µM]	-4%	0.0%	-12%	7%	-12%
CC(C)C(c1nnnn1Cc1ccc(F)cc1)N1CCN(C2CCCCC2)CC1 (configuration not stated)	10%	15%[46.1 µM]	-5%	0.0%	-2%	6%	1%
COc1ccc(-c2cc(C(F)(F)F)nc(SCCC(=O)Nc3cc(C)on3)n2)cc1	9%	?	-1%	1.4%	-3%	4%	-7%
COC(=O)c1ccccc1NC(=O)NC1CCN(Cc2ccccc2)CC1	-1%	-4%[46.1 µM]	-9%	0.9%	1%	2%	-3%
O=C(N/N=C/c1ccco1)C1CC1c1ccccc1 (configuration not stated)	-9%	3%	-4%	0.0%	-9%	-3%	?
N#Cc1cc(S(=O)(=O)c2ccc(F)cc2)c(N)[nH]c1=O	14%	19%	3%	-3.8%	-5%	-1%	-2%
O=C(NNC(=O)c1cccnc1)Nc1ccc(Cl)c(Cl)c1	-22%	3%[46.1 µM]	7%	1.0%	2%	1%	-16%
COc1ccc(-n2c(=O)c3c4c(sc3n(CC(=O)Nc3cc(C)[nH]n3)c2=O)CCC4)c(OC)c1	4%	2%	-2%	-6.5%	-16%	5%	3%
CN(C)c1nc(N)nc(/C(C#N)=C/C2CC3C=CC2C3)n1 (configuration not stated)	9%	-6%[46.1 µM]	-5%	-2.7%	-7%	1%	-7%
Cc1c(NC(=O)CSc2n[nH]c(=O)n2-c2ccccc2)c(=O)n(-c2ccccc2)n1C	3%	16%	1%	2.5%	2%	-11%	-16%
Cn1c(N)c(C(=O)CCl)c(=O)n(Cc2ccccc2)c1=O	6%	-13%	1%	-2.9%	-4%	-4%	3%
Cc1ccc(S(=O)(=O)Cn2nnnc2C(CC(C)C)N2CCN(c3ccccc3)CC2)cc1 (configuration not stated)	-8%	-27%[46.1 µM]	-10%	1.2%	-26%	0%	2%
CCc1nnc(NC(=O)C(=O)NCCOC(=O)c2ccccc2)s1	-16%	-15%[46.1 µM]	?	3.1%	-3%	4%	-4%
O=CNCC(=O)NC1CCCCCC1	10%	13%[46.1 µM]	2%	-0.9%	-7%	1%	-12%
CC(C)NCCOCCOc1ccc(Cl)cc1Br	1%	12%	2%	-0.9%	6%	-3%	-5%
NS(=O)(=O)c1cccc2cccnc12	13%	2%[46.1 µM]	-5%	-2.2%	8%	2%	-3%
Cc1cccc(Nc2ncccc2C(=O)NCc2cccs2)c1C	-13%	-24%[46.1 µM]	1%	-0.9%	?	-4%	-11%
CC(NC(=O)c1ccccc1)C(=O)OCC(=O)N1c2ccccc2Sc2ccccc21 (configuration not stated)	-6%	-6%	-7%	-1.8%	-23%	5%	-15%
CCCn1c(C)nc2c(NCCCN(CCO)CCO)nc(C)nc21	.	.	.	2.7%	-8%	-3%	-1%
O=[N+]([O-])c1cccn2cc(-c3ccc(Br)cc3)nc12	3%	-12%	-12%	-1.8%	-14%	-1%	0%
Cc1ccc(S(=O)(=O)NC(=O)c2cc(C)n(-c3ccc(N(C)C)cc3)c2C)cc1	-24%	6%[46.1 µM]	3%	-0.9%	-26%	1%	2%
Cc1noc(C)c1S(=O)(=O)N1CCC(C(=O)N2CCN(c3ccc(F)cc3)CC2)CC1	-3%	-13%[46.1 µM]	-2%	0.0%	-13%	-16%	-9%
O=C(C1=C[C@H](c2ccccc2)C[C@H](OCc2ccc(CO)cc2)O1)N1CCOCC1	14%	2%	.	-0.7%	0%	8%	-2%
O=C(O)c1ccccc1Nc1ccccc1	.	-7%[46.1 µM]	.	-1.4%&0.0%&0.0%&-1.3%	?	0%&-11%&9%&-25%	-11%&-2%&-1%&-23%

Screening results: PubChem BioAssay, National Center for Advancing Translational Sciences (NCATS)
